# Bioassay records deposited in PubChem by National Center for Advancing Translational Sciences (NCATS).
# RE007 growth inh: less growth of the S. pombe RE007 Vpr strain; AID 651644; Potency, µM (series often up to 92.2 µM), inactives show at the highest dose activity change, negative = less growth; 360,000 tested, 0.21% active; S. pombe RE007 Vpr strain, BacTiter-Glo ATP luminescence, 24 h; control for the full effect not named in the record; active = well fitted falling curve with a large enough effect; inconclusive = small, poorly fitted or top-dose-only effect; inactive = no such curve, though single readings can be large or run the other way;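 also: % is scaled to controls: 0 for no effect and ±100 for the full control effect; nearly all actives have a fitted effect of over 50% in size; the assay follows cell death caused by Vpr and the record does not say whether a fall means rescue or toxicity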
#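 Fission yeast strain RE007, carrying one chromosomally integrated HIV-1 vpr copy, was seeded at OD 0.01 in PMG+AL medium with 23 nL pinned compound. After 24 h at 30 °C and 99% humidity, viability was read by BacTiter-Glo luminescence.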
# Cruzain inh Det: cruzain (T. cruzi) inhibition with detergent | P25779 | purified cruzain, Z-FR-AMC fluorescence, 0.01% Triton | Potency, µM, without a hit: max response, negative = inhibition, hits mostly inhibitors | 200,000 tested, 0.43% active | AID 1478;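 also: plate controls were neutral wells for no effect and buffer without enzyme for full effect; nearly all actives have a fitted effect of over 40% in size; top concentration of the series not given in the record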
# Target sequence (P25779 123-467 limits assumed): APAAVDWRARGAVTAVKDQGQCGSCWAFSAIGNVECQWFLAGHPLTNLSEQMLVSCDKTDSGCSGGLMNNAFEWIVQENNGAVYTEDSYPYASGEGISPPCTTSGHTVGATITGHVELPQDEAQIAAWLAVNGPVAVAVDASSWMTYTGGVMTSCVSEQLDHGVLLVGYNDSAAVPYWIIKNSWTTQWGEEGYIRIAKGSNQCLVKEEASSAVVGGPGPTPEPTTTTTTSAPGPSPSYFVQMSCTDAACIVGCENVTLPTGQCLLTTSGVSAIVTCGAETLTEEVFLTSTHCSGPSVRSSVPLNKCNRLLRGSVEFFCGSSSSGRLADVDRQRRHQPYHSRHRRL
#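 Z-FR-AMC hydrolysis (2 uM substrate) by cruzain (1.5 nM) monitored kinetically at ex 360/em 450 nm after 15 min room-temperature compound exposure; 0.01% Triton X-100, pH 5.5, 5 mM DTT.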
# NS1 inh: inhibitors of influenza NS1 protein function. S. cerevisiae slowed by influenza A NS1, growth recovery by OD600. Potency, µM (titrated, usually from 46.1 µM), inactives show at the highest dose activity, positive = more growth. 270,000 tested, 0.4% active; active means well fitted rising curve with a large enough effect; inconclusive means small, poorly fitted or top-dose-only effect; inactive means no such curve, though single readings can be large or run the other way; also: nearly all actives have a fitted effect of over 50% in size
#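 Compounds were scored for reversing the slow growth caused by influenza A NS1 in S. cerevisiae, measured by optical density at 600 nm. Assay medium contained 2% galactose at pH 6.0; NS1-free yeast of the same strain were the positive control.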
# 2A StopGo: lowers the luciferase signal of an FMDV 2A StopGo reporter; human cells with a luciferase reporter of 2A StopGo recoding; control for the full effect not named in the record; Potency, µM (series often up to 57.9 µM), for inactives: at the top dose signal change, negative = less light; 410,000 tested, 1.2% active; active = well fitted falling curve with a large enough effect; inconclusive = small, poorly fitted or top-dose-only effect; inactive = no such curve, though single readings can be large or run the other way; tested in HEK293T cells; also: % is scaled to controls: 0 for no effect and ±100 for the full control effect; nearly all actives have a fitted effect of over 45% in size; luciferase light after 4 h
# SARS PLP yeast: blocks SARS-CoV papain-like protease in a yeast assay; S. cerevisiae expressing SARS-CoV PLpro, growth rescue; control for the full effect not named in the record; Potency, µM (doses to about 32.9 µM), for the others: at the highest dose activity, positive = growth rescue; 330,000 tested, 0.19% active; active means well fitted rising curve with a large enough effect; inconclusive means small, poorly fitted or top-dose-only effect; inactive means no such curve, though single readings can be large or run the other way; also: 0% is about no effect; nearly all actives have a fitted effect of over 55% in size; growth read by luminescence after 48 h
# MARV entry inh: blocks Marburg virus binding to or entry into cells; Potency, µM (series often up to 37.8 µM), inactives show at the top dose activity change, negative = inhibition, most hits filed as inhibitors; AID 540276; Marburg virus pseudotyped entry inhibition, cell reporter; control for the full effect not named in the record; about a third of the inactives were read at about 46 µM; 300,000 tested, 1.8% active; active = well fitted inhibition curve with a large enough effect; inconclusive = small, poorly fitted or top-dose-only effect, or effect the other way; inactive = flat fitted curve, though single readings scatter; tested in HEK293 cells; about a fifth of its hits are not listed in these tables; also: % is scaled to controls: 0 for no effect and ±100 for the full control effect; luciferase read-out
# LASV entry inh: Lassa virus entry inhibition | Lassa virus pseudotype entry inhibition, cell reporter; control for the full effect not named in the record | Potency, µM (highest dose often 37.9 µM), without a hit: at the top dose activity change, negative = inhibition, actives largely listed as inhibitors | 300,000 tested, 1.2% active | AID 540256; active means well fitted inhibition curve with a large enough effect; inconclusive means small, poorly fitted or top-dose-only effect, or effect the other way; inactive means flat fitted curve, though single readings scatter; tested in HEK293 cells; also: % is scaled to controls: 0 for no effect and ±100 for the full control effect; nearly all actives have a fitted effect of over 50% in size; luciferase read-out
# Cruzain noTriton: inhibitors of Trypanosoma cruzi cruzain without detergent; 200,000 tested, 2.3% active; AID 1476; purified cruzain, Z-FR-AMC fluorescence, no detergent; P25779; Potency, µM, inactives show max response, negative = inhibition, most hits filed as inhibitors;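 also: plate controls were enzyme without inhibitor for no effect and buffer without enzyme for full effect; nearly all actives have a fitted effect of over 40% in size; top concentration of the series not given in the record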
#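 Detergent-free condition (0.00005% Triton X-100) in acetate buffer pH 5.5 with DTT. 1.5 nM enzyme and compound were pre-mixed 15 min, then 2 uM Z-FR-AMC substrate added; reaction progress from fluorescence change between first and third reads (60 s).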
# An asterisk follows results filed as active; ? = inconclusive; nt = not tested or not shown; & = joins results of further samples; [ ] = another dose, or the depositor's remark. Unless noted, calls follow the shape of the dose curve; as a rule, active = well fitted curve in the direction sought with a large enough effect; inconclusive = small, poorly fitted or top-dose-only effect, or another doubt; inactive = no such curve, though single readings can be large; an effect the other way counts as inactive or inconclusive. Potency is read from the fitted curve at half-maximal effect.
SMILES,RE007 growth inh,Cruzain inh Det,NS1 inh,2A StopGo,SARS PLP yeast,MARV entry inh,LASV entry inh,Cruzain noTriton
Cc1cc(F)ccc1S(=O)(=O)N1CCCOC1CNC(=O)C(=O)NCCc1c[nH]c2ccccc12 (configuration not stated),-3.2%,-8.6%,-5.9%,31.6µM*,-1.5%,?,?,?
CCOc1cccc(NC(=O)c2ccc(S(=O)(=O)N3CCCC3)cc2)c1,0.0%,nt,-1.3%,?,-0.4%,nt,nt,nt
CCOc1ccc(NC(=O)CN(C)C(=O)CCCn2c(=O)oc3ccccc32)cc1OCC,3.6%,nt,nt,-21.5%,-0.7%,-5.7%,7.4%,nt
Cc1ccc(C2C(C(=O)c3cccs3)=C(O)C(=O)N2c2ccc(S(N)(=O)=O)cc2)cc1 (configuration not stated),-7.3%,nt,?,35.8%[activator],6.2%,3.4%,9.2%,nt
Cc1ccccc1NC(=S)N1CCN(Cc2ccccc2)CC1,-16.0%,1.0%,-1.1%,12.4%,12.2%,?,-8.6%,6.3%
Cc1ccc(N2C(=O)N(CC(=O)Nc3ccccc3C(F)(F)F)C(=O)C2C)cc1 (configuration not stated),0.8%,nt,nt,-14.8%,-11.9%,7.8%,-17.9%,nt
O=C(NC1CCCCC1)C(c1ccncc1)N(C(=O)c1ccco1)c1ccc(F)cc1 (configuration not stated),51.6%,nt,0.5%,-1.5%,10.8%,3.7%,-15.3%,nt
CCN(CC)S(=O)(=O)c1cccc(-c2nnc(SCC(=O)NC)n2N)c1,-6.5%,nt,7.4%,-4.4%,1.9%,nt,nt,nt
Cn1c(=O)[nH]c2nncnc2c1=O,-15.3%,nt,nt,-26.1%,nt,7.6%[46.1 µM],?,nt
Cc1ccccc1NC(=O)CSc1nc2c(oc3ccccc32)c(=O)n1Cc1ccco1,nt,-0.2%,nt,34.1%[activator],nt,5.7%[46.1 µM],nt,-0.3%
N#Cc1c(NC(=O)C2CC(c3c(F)cccc3Cl)=NO2)sc2c1CCC2 (configuration not stated),-15.6%,-8.1%,-0.7%,14.8%,9.6%,2.2%,?,-9.3%
Cn1c(=O)c2[nH]c(CN3CCCCC3)nc2n(C)c1=O,0.0%,nt,nt,5.3%,nt,7.8%[46.1 µM],7.2%[46.1 µM],nt
COc1ccccc1NC(=O)Nc1ccc(CC#N)cc1,-4.5%,nt,-7.2%,69.8%[activator],-1.9%,nt,nt,nt
Cc1c(C(=O)C(=O)N2CC=C(c3ccccc3)CC2)c2ccccc2n1C,3.5%,-8.0%,1.5%,0.0%,-6.6%,?,?,-1.6%
COc1ccc(OC)c(/C=N/NC(=O)C(=O)NCc2cccnc2)c1,-14.5%,nt,-32.4%,-12.0%,-3.2%,15.2%,-1.4%,nt
CCN(CC)c1ccc(NC(=O)c2ccccc2OCC(=O)OC)cc1,-4.1%,nt,4.8%,-2.8%,-2.1%,-1.4%,21.3%,nt
CCOc1ccc2nc(N3CCCC(C(=O)NC4CCCC4)C3)sc2c1 (configuration not stated),12.6%,nt,-8.2%,-16.4%,-0.2%,nt,nt,nt
CC(C)c1ccccc1OCCCCCN1CCOCC1,-4.0%,nt,nt,-20.7%,nt,?,1.9%,nt
O=CNc1ccc(OP(=O)(Oc2ccccc2)Oc2ccccc2)cc1,3.7%,nt,-26.9%,-4.6%,0.7%,?,?,nt
CCn1ccnc1C(O)(c1ccccc1)c1ccccc1,10.6%,nt,-1.4%,-4.9%,1.2%,nt,nt,nt
Cc1ccc(OCCC(=O)N(CC(=O)Nc2ccccc2C(F)(F)F)Cc2ccco2)cc1,-16.5%,nt,nt,-11.0%,-1.9%,-13.5%,-3.0%,nt
Cc1ccc(CNC(=O)C2CCC(=O)N(CCc3ccccn3)C2)s1 (configuration not stated),-6.2%,nt,16.3%,-1.5%,-2.7%,28.3%,-4.3%,nt
CCN(CC)c1nc(C(N)=O)cc(-c2ccccc2)n1,13.8%,-9.5%,-179.9%,-6.9%,-23.6%,?,-13.6%,4.6%
O=C(CSc1nnnn1-c1ccccc1)CSc1nnnn1-c1ccccc1,1.8%,-1.0%,18.1%,nt,-2.6%,10.9%,?,-10.3%
Cc1c(CN2CCC(CO)(CCOc3ccccc3)CC2)[nH]c2ccc(Cl)cc12,0.2%,nt,8.7%,-26.5%,-2.2%,2.82µM*,?,nt
CCOc1ccc(/C(O)=C2/C(=O)C(=O)N(CCN(CC)CC)C2c2ccco2)cc1 (configuration not stated),4.1%,-3.3%,-8.8%,15.2%,12.2%,?,16.7%,8.0%
COC(=O)c1ccccc1S(=O)(=O)NNC(=O)c1ccccc1-n1cccc1,-0.8%,nt,16.1%,12.0%,0.3%,13.3%[46.1 µM],1.6%[46.1 µM],nt
COC(=O)c1cc(S(=O)(=O)N(Cc2ccccc2)C(C)(C)C)c[nH]1,-2.8%,nt,-9.8%,1.1%,4.6%,nt,nt,nt
CC(=O)c1ccc(NC(=O)c2ccc(CNc3c(N4CCOCC4)c(=O)c3=O)cc2)cc1,1.4%,nt,-10.1%,45.4%[activator],1.5%,nt,nt,nt
CCN(CC)CCC(=O)N1c2ccccc2CCc2ccc(NC(=O)OC(C)C)cc21,11.0%,nt,1.8%,-9.0%,-1.2%,nt,nt,nt
CCCOc1ccc(C2c3c(oc4ccccc4c3=O)C(=O)N2c2nnc(C(C)C)s2)cc1 (configuration not stated),nt,-2.7%,nt,1.5%,nt,1.6%[46.1 µM],-9.0%[46.1 µM],-3.1%
Cc1ccc(S(=O)(=O)N(C(=O)c2ccncc2)c2ccc(OC(=O)c3ccncc3)cc2)cc1,20.0%,-4.2%,-23.0%,-20.5%,-38.3%,-32.8%,-18.0%,?
CCCCN1C(=O)C(O)(CC(=O)c2ccccc2OC)c2ccccc21 (configuration not stated),1.5%,-1.0%,-7.8%,-17.9%,2.6%,11.8%,-0.4%,-2.3%
CC(C)C(NC(=O)c1ccc(Cl)cc1Cl)C(=O)N1CCN(S(=O)(=O)c2ccccc2)CC1 (configuration not stated),-9.6%,nt,nt,-11.2%,-1.4%,?,19.8%[46.1 µM],nt
O=C(CCn1c(=S)oc2ccccc21)Nc1cccc(F)c1,-0.2%,nt,nt,12.4%,0.6%,15.4%[46.1 µM],9.4%,nt
CS(=O)(=O)N1CCN=C1SCc1ccc(Br)cc1,1.9%,nt,-9.4%,-16.9%,-2.4%,nt,nt,nt
Cc1cccc(C)c1OCC(=O)NCC1(N(C)C)CCCCC1,nt,-2.2%,nt,3.1%,nt,-6.9%[46.1 µM],-1.6%[46.1 µM],-15.3%
CCOc1ccccc1NC(=O)N1CC(C)Oc2ccc(Cl)cc21 (configuration not stated),nt,-1.3%,nt,-22.6%,nt,nt,2.8%[46.1 µM],0.6%
Cn1cccc1C(=O)NC(=O)COC(=O)CC12CC3CC(CC(C3)C1)C2,25.5%,-5.2%,7.6%,-4.7%,1.0%,?,5.3%,5.9%
CCCNS(=O)(=O)c1ccc(OCC(=O)Nc2ccc3c(c2)OCCO3)c(C)c1,4.2%,nt,nt,12.3%,1.7%,-22.7%,-15.9%,nt
Cc1ccccc1NC(=O)CN1C(=O)COc2ccc(Cl)cc21,-18.3%,-0.8%,-8.6%,-26.3%,2.0%,nt,nt,-8.0%
O=C(CCSCCc1ccccn1)Nc1ccc(Br)cc1F,-20.9%,-1.0%,-15.5%,-21.7%,22.5%,-1.4%,16.0%,-0.8%
COCc1cc(Sc2cccc(Cl)c2Cl)nc(-c2ccccc2)n1,5.9%,-5.4%,0.5%,?,-14.3%,-21.8%,-12.3%,-7.8%
COc1ccc(OC)c(/C=N/NC(=O)CN2CCSCC2)c1,-8.1%,-9.5%,13.2%,-23.5%,-28.0%,40.6%,16.9%,?
CC(C)(C)C(=O)N1CCN(c2nc3ccc(Cl)cc3s2)CC1,-6.5%,nt,-8.0%,-26.3%,-1.7%,3.3%&3.3%[46.1 µM],7.4%[46.1 µM],nt
O=C(CCNC(=O)N1CCn2c1nc1ccccc12)NCc1ccccc1,-2.2%,nt,9.6%,-5.8%,8.1%,nt,nt,nt
O=C(CCc1nc2ccccc2c(=O)[nH]1)NNC(=O)c1ccccc1Cl,4.5%,nt,nt,-8.3%,-2.2%,8.6%,6.4%[46.1 µM],nt
Cc1ccc(-c2csc(NC(=O)/C=C/c3ccco3)c2C(=O)O)cc1,-0.5%,nt,-63.9%,12.8%,1.3%,?,?,nt
CC1CCC(CN2C(Nc3ccccc3)=NC[C@@H]2C)CC1 (some centres not stated),3.6%,nt,-10.0%,-9.2%,-0.4%,nt,nt,nt
COc1ccc(CC(=O)Nc2ccccc2C(=O)N2CCOCC2)cc1OC,-10.7%,-3.1%,4.8%,-2.9%,15.4%,-1.8%,-1.4%,-1.8%
Cc1ccc(Sc2cc(Cl)nc(N)n2)cc1,-2.8%,2.1%,-1.9%,3.8%,-16.0%,?,-0.5%,?
CCOc1ccc(OCc2ccc(C(=O)N3CCCCC3)o2)cc1,-18.8%,nt,-42.8%,?,1.2%,?,-25.8%[46.1 µM],nt
COc1ccc(C(C)C)cc1S(=O)(=O)Nc1ncn[nH]1,-0.6%,nt,13.0%,10.0%,5.2%,3.0%[46.1 µM],-12.4%[46.1 µM],nt
C=CCn1c(SCC(=O)Nc2ccc(OC)cc2)nnc1-c1cnccn1,-1.0%,nt,12.7%,-8.8%,2.4%,?,?,nt
Cc1csc(NC(=O)C2CC(=O)N(c3ccc(C)c(C)c3)C2)n1 (configuration not stated),-6.3%,nt,?,-14.4%,2.9%,2.8%[46.1 µM],0.2%,nt
COc1ccc(C(=O)Cn2c(NCCCl)nc3ccccc32)cc1,3.0%,nt,-12.5%,-1.5%,4.4%,nt,nt,nt
C=CCN1C=CC(=C/C=C(/C#N)C(=O)OCC)C=C1,-6.7%,?,2.5%,-4.3%,10.1%,?,?,-28.9%
COc1ccc(Cl)cc1C(=O)NNC(=O)c1csc(N2CCOCC2)n1,-4.1%,nt,nt,-23.5%,-2.4%,1.1%,21.6%,nt
CCC(=O)Nc1cc(OC)cc(OC)c1,-6.9%,nt,nt,-11.6%,0.5%,4.4%[46.1 µM],12.8%[46.1 µM],nt
